Bioassay records deposited in PubChem by Broad Institute.
Env fusion inh: HIV envelope-mediated fusion inhibition; HeLa-JRFL Env/CEM21 cell fusion, luciferase; inhibition, % at 12.3 µM; 360,000 compounds, 1.1% hits;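 active means mean replicate inhibition score of at least 50 and every replicate individually at or above 50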;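 further: 0% = plate neutral controls and 100% = maraviroc near 300 nM; one replicate is shown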
UUG fidelity: alters start codon recognition fidelity in yeast. 350,000 compounds, 0.13% hits. S. cerevisiae UUG-firefly luciferase reporter, luminescence/redox ratio. AID 602363. activity score, % at 18.7 µM;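 active means replicate mean at a twofold rise or more, about +100% in these data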;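 further: firefly luciferase made from a UUG start codon reports start codon fidelity; reporter light over untreated wells divided by growth signal over untreated wells; some hits fall short of that in this replicate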
Active calls of the source: *; & = joins results of further samples; [ ] = another dose, or the depositor's remark. The list is partial; the hit share may differ from the screen's.

1. C[C@@H]1CCCCO[C@@H](CN(C)Cc2ccc(C(=O)O)cc2)[C@@H](C)CN([C@H](C)CO)C(=O)c2cc(NS(=O)(=O)c3ccccc3)ccc2O1
2. COc1ccc(NC(=O)Nc2ccc3c(c2)CC(=O)N([C@H](C)CO)C[C@H](C)[C@H](CN(C)C(=O)NC(C)C)O3)cc1
3. COc1ccc(NC(=O)N(C)C[C@@H]2OCCCC[C@@H](C)Oc3ccc(NS(=O)(=O)c4ccc(C)cc4)cc3C(=O)N([C@@H](C)CO)C[C@H]2C)cc1
4. CO[C@@H]1CN(C)C(=O)c2ccc(NC(=O)Nc3ccccc3)cc2OC[C@H](C)N(C(C)=O)C[C@@H]1C
5. C[C@H](CO)N1C[C@H](C)[C@H](CN(C)S(C)(=O)=O)Oc2ncc(-c3ccc(F)cc3)cc2C1=O
6. CC(C)NC(=O)N(C)C[C@@H]1Oc2ccc(NS(=O)(=O)c3cn(C)cn3)cc2C(=O)N([C@H](C)CO)C[C@@H]1C
7. C[C@@H]1CN([C@@H](C)CO)C(=O)c2cc(NC(=O)Nc3ccc(F)cc3)ccc2O[C@@H](C)CCCCO[C@@H]1CN(C)C(=O)C1CCCCC1
8. COc1ccc(S(=O)(=O)Nc2ccc3c(c2)C(=O)N([C@@H](C)CO)C[C@@H](C)[C@H](CN(C)S(C)(=O)=O)O3)cc1

entry no.,1,2,3,4,5,6,7,8
Env fusion inh,-9[16.7 µM],-1[16.7 µM],-16[16.7 µM],14[16.7 µM],-5&-3[16.7 µM],12[16.7 µM],5[16.7 µM],-2[16.7 µM]
UUG fidelity,-2,4,-4,19,-8&7,-10,-11,-8

9. CC(=O)N(C)C[C@@H]1Oc2ncc(-c3ccc(F)cc3)cc2C(=O)N([C@H](C)CO)C[C@H]1C
10. COCC(=O)N(C)C[C@@H]1Oc2cc(-c3cncnc3)ccc2S(=O)(=O)N([C@H](C)CO)C[C@H]1C
11. O=C1CS(=O)(=O)C(c2ccccc2)N1c1ccc(Cl)cc1 (stereo not drawn)
12. CC(C)NC(=O)Nc1ccc2c(c1)C(=O)N([C@H](C)CO)C[C@H](C)[C@H](CN(C)Cc1ccccc1)O2
13. CCCC#Cc1ccc2c(c1)O[C@H](CN(C)C(=O)NCCC)[C@H](C)CN([C@@H](C)CO)S2(=O)=O
14. C[C@H](CO)N1C[C@H](C)[C@H](CN(C)S(=O)(=O)c2ccccc2)Oc2ccc(NS(=O)(=O)c3ccccc3)cc2C1=O
15. O=C(Cc1ccccn1)NCC[C@@H]1CC[C@@H](NC(=O)Nc2ccc(C(F)(F)F)cc2)[C@H](CO)O1
16. C[C@@H]1CN([C@@H](C)CO)C(=O)c2cc(C3=CCCC3)cnc2O[C@H]1CN(C)C(=O)c1ccccc1

entry no.,9,10,11,12,13,14,15,16
Env fusion inh,6[16.7 µM],4[16.7 µM],-4[16.7 µM],1[16.7 µM],-30[16.7 µM],0[16.7 µM],-1[16.7 µM],9[16.7 µM]
UUG fidelity,-7,-5,-25,-6,7,17,8,20

17. C[C@H](CO)N1C[C@H](C)[C@H](CN(C)Cc2ccc3c(c2)OCO3)Oc2ccc(NS(=O)(=O)c3ccccc3)cc2C1=O
18. COc1ccc(S(=O)(=O)Nc2ccc3c(c2)C(=O)N([C@H](C)CO)C[C@@H](C)[C@H](CN(C)C(=O)c2ccncc2)OCCCC[C@@H](C)O3)cc1
19. C[C@H](CO)N1C[C@H](C)[C@H](CN(C)Cc2ccccc2)OCCCC[C@H](C)Oc2ccc(NC(=O)CCCN(C)C)cc2C1=O
20. O=C(C[C@@H]1C=C[C@H](NC(=O)Nc2ccc3c(c2)OCO3)[C@H](CO)O1)NCc1ccc(Cl)cc1
21. COc1ccccc1NC(=O)N1C[C@@H](O)COC[C@@H]2O[C@@H](CC(=O)N3CCC(Cc4ccccc4)CC3)CC[C@H]21
22. CC(C)NC(=O)N(C)C[C@H]1Oc2ccc(NC(=O)Nc3ccc4c(c3)OCO4)cc2CC(=O)N([C@H](C)CO)C[C@H]1C
23. COc1ccc(S(=O)(=O)N(C)C[C@H]2Oc3ccc(NS(=O)(=O)c4ccc(F)cc4)cc3C(=O)N([C@@H](C)CO)C[C@H]2C)cc1
24. C[C@H]1CN([C@@H](C)CO)S(=O)(=O)c2ccc(C#CC3CCCC3)cc2O[C@H]1CN(C)Cc1cccnc1

entry no.,17,18,19,20,21,22,23,24
Env fusion inh,9[16.7 µM],-16[16.7 µM],-1[16.7 µM],28[16.7 µM],7[16.7 µM],-10[16.7 µM],-27[16.7 µM],25[16.7 µM]
UUG fidelity,5,5,10,4,10,0,5,142*

25. Cc1ccc(S(=O)(=O)Nc2ccc3c(c2)C(=O)N([C@H](C)CO)C[C@H](C)[C@@H](CN(C)S(=O)(=O)c2cn(C)cn2)OCCCC[C@@H](C)O3)cc1
26. C[C@@H]1CN([C@@H](C)CO)S(=O)(=O)c2ccc(C#CC3CC3)cc2O[C@H]1CN(C)C(=O)Cc1ccncc1
27. O=C(NCC[C@@H]1CC[C@@H](NC(=O)C2CCCC2)[C@H](CO)O1)c1cc(Cl)cc(Cl)c1
28. CC(C)CC#Cc1ccc2c(c1)O[C@@H](CN(C)C(=O)CC1CC1)[C@@H](C)CN([C@H](C)CO)S2(=O)=O
29. C[C@@H]1CN([C@@H](C)CO)C(=O)c2cc(C#CCN(C)C)cnc2O[C@@H]1CN(C)C
30. CCCC(=O)Nc1ccc2c(c1)OC[C@H](C)N(Cc1ccncc1)C[C@@H](C)[C@H](OC)CN(C)C2=O
31. COc1ccc(NC(=O)N(C)C[C@H]2OCCCC[C@@H](C)Oc3ccc(NS(=O)(=O)c4ccccc4)cc3C(=O)N([C@H](C)CO)C[C@@H]2C)cc1
32. O=C(Nc1ccc(Cl)cc1)N[C@@H]1CC[C@@H](CCn2cc(-c3ccccc3F)nn2)O[C@@H]1CO

entry no.,25,26,27,28,29,30,31,32
Env fusion inh,40[16.7 µM],-12[16.7 µM],-3[16.7 µM],29[16.7 µM],2[16.7 µM],6[16.7 µM],-25[16.7 µM],-15[16.7 µM]
UUG fidelity,-12,-14,5,0,51,12,9,-13

Continued (4 carried over from the part before).
29. C[C@@H]1CN([C@@H](C)CO)C(=O)c2cc(C#CCN(C)C)cnc2O[C@@H]1CN(C)C
30. CCCC(=O)Nc1ccc2c(c1)OC[C@H](C)N(Cc1ccncc1)C[C@@H](C)[C@H](OC)CN(C)C2=O
31. COc1ccc(NC(=O)N(C)C[C@H]2OCCCC[C@@H](C)Oc3ccc(NS(=O)(=O)c4ccccc4)cc3C(=O)N([C@H](C)CO)C[C@@H]2C)cc1
32. O=C(Nc1ccc(Cl)cc1)N[C@@H]1CC[C@@H](CCn2cc(-c3ccccc3F)nn2)O[C@@H]1CO
33. C[C@H]1CCCCO[C@H](CN(C)Cc2ccc(C(F)(F)F)cc2)[C@@H](C)CN([C@@H](C)CO)C(=O)c2cc(NS(=O)(=O)c3cccs3)ccc2O1
34. C[C@H](CO)N1C[C@H](C)[C@H](CN(C)Cc2ccc(-c3ccccc3)cc2)Oc2ccc(NC(=O)Nc3ccccc3)cc2CC1=O
35. Cc1noc(C)c1S(=O)(=O)Nc1ccc2c(c1)C(=O)N([C@H](C)CO)C[C@@H](C)[C@@H](CN(C)C(=O)Nc1ccc(F)cc1)OCCCC[C@@H](C)O2
36. O=C(C[C@H]1C=C[C@@H](NC(=O)C2CC2)[C@@H](CO)O1)Nc1nccs1
37. O=C(N[C@H]1CC[C@H](CCNC(=O)C2CC2)O[C@@H]1CO)c1ccncc1
38. COCCNC(=O)C[C@H]1C=C[C@H](NS(=O)(=O)c2ccc(C)cc2)[C@H](CO)O1
39. CCCN(C)C[C@H]1Oc2cc(C#Cc3ccc(F)cc3)ccc2S(=O)(=O)N([C@@H](C)CO)C[C@H]1C
40. C[C@H](CO)N1C[C@H](C)[C@H](CN(C)Cc2cncnc2)Oc2cc(-c3cncnc3)ccc2S1(=O)=O

entry no.,29,30,31,32,33,34,35,36,37,38,39,40
Env fusion inh,2[16.7 µM],6[16.7 µM],-25[16.7 µM],-15[16.7 µM],19[16.7 µM],4[16.7 µM],-54[16.7 µM],-23[16.7 µM],5[16.7 µM],-12[16.7 µM],-7[16.7 µM],-7[16.7 µM]
UUG fidelity,51,12,9,-13,-4,-1,5,-14,0,-10,-4,-20

Fetched by structure from above (2):
36. O=C(C[C@H]1C=C[C@@H](NC(=O)C2CC2)[C@@H](CO)O1)Nc1nccs1
34. C[C@H](CO)N1C[C@H](C)[C@H](CN(C)Cc2ccc(-c3ccccc3)cc2)Oc2ccc(NC(=O)Nc3ccccc3)cc2CC1=O

entry no.,36,34
Env fusion inh,-23[16.7 µM],4[16.7 µM]
UUG fidelity,-14,-1

(listing goes on)
41. C[C@H]1CN([C@@H](C)CO)C(=O)c2cc(-c3ccc(C#N)cc3)cnc2O[C@H]1CN(C)C(=O)CN(C)C
42. COCC(=O)N1[C@H](CO)[C@H](c2ccccc2)[C@@H]1C#N
43. COc1ccc(S(=O)(=O)Nc2cccc3c2O[C@H](CN(C)Cc2ccc(Cl)c(Cl)c2)[C@@H](C)CN([C@@H](C)CO)C3=O)cc1
44. O=C(Nc1ccccc1F)N[C@@H]1CC[C@H](CCNS(=O)(=O)c2ccc(Cl)cc2)O[C@H]1CO
45. CN1CCN(C(=O)C[C@H]2CC[C@@H](NC(=O)Nc3ccccc3F)[C@@H](CO)O2)CC1
46. CCC(=O)Nc1ccc2c(c1)C(=O)N(C)[C@H]1CC[C@@H](CC(=O)N[C@H](C)c3ccccc3)O[C@@H]1CO2
47. COc1ccc(NC(=O)O[C@H](c2ccc(OC)c(O)c2)[C@@H](CCO)OC)cc1
48. C[C@H](CO)N1C[C@H](C)[C@H](CN(C)Cc2ccc(C(F)(F)F)cc2)Oc2c(NC(=O)c3ccncc3)cccc2C1=O

entry no.,41,42,43,44,45,46,47,48
Env fusion inh,-1[16.7 µM],6[16.7 µM],-7[16.7 µM],0[16.7 µM],-2[16.7 µM],0[16.7 µM],12[16.7 µM],1[16.7 µM]
UUG fidelity,9,3,3,-5,20,33,5,-16

49. CC(C)NC(=O)N(C)C[C@H]1OCCCC[C@@H](C)Oc2ccc(NS(C)(=O)=O)cc2C(=O)N([C@@H](C)CO)C[C@@H]1C
50. COc1cccc(C(=O)Nc2ccc3c(c2)C(=O)N(C)[C@@H]2CC[C@@H](CC(=O)NCc4ccc(F)cc4)O[C@H]2CO3)c1
51. Cc1noc(C)c1NC(=O)N(C)C[C@@H]1Oc2ncc(C#Cc3ccc(C(F)(F)F)cc3)cc2C(=O)N([C@H](C)CO)C[C@@H]1C
52. C[C@@H]1CN([C@H](C)CO)C(=O)c2cc(-c3cccc(F)c3)cnc2O[C@@H]1CN(C)C(=O)Nc1cc(F)ccc1F
53. Cc1ccc(S(=O)(=O)Nc2ccc3c(c2)CC(=O)N([C@@H](C)CO)C[C@@H](C)[C@H](CN(C)S(=O)(=O)c2cn(C)cn2)O3)cc1
54. Cc1noc(C)c1NC(=O)Nc1ccc2c(c1)CC(=O)N([C@H](C)CO)C[C@@H](C)[C@@H](CN(C)C(=O)Nc1c(C)noc1C)O2
55. C[C@@H]1CCCCO[C@H](CN(C)C(=O)Nc2cccc3ccccc23)[C@@H](C)CN([C@H](C)CO)C(=O)c2cc(NC(=O)Nc3ccc(C(F)(F)F)cc3)ccc2O1
56. CCC(=O)Nc1ccc2c(c1)C(=O)N(C)[C@H]1CC[C@H](CC(=O)Nc3cccc(OC)c3)O[C@@H]1CO2

entry no.,49,50,51,52,53,54,55,56
Env fusion inh,18[16.7 µM],11[16.7 µM],-10[16.7 µM],2[16.7 µM],5[16.7 µM],14[16.7 µM],-12[16.7 µM],-19[16.7 µM]
UUG fidelity,9,10,18,13,-3,3,-15,-1
